Assay outcomes: PubChem, several laboratories
INS promoter inh = TRM-6 insulin promoter activity inhibition | TRM-6 cells (human fetal islet line), insulin promoter-eGFP reporter, imaging; reporter expression induced with tamoxifen | inhibition, % at 2 µM | 0.9% of 130,000 active | AID 1273;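 active = inhibition above the mean plus 3 SD, with well images judged a real hit on visual review, cut at about 60% in these data, passing the limit was not always enough; inconclusive = inhibition over the cutoff but images rejected on review; inactive = inhibition not above the cutoff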
GALR2 ag = activates the human galanin receptor 2 | GALR2-expressing cells, agonist activation read-out | activation, %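 (tested at 5 µM)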 | 0.48% of 140,000 active;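 active = above mean plus 3 SD of all compounds, about 5% in these data, not always enough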;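 also: 0% = vehicle buffer wells and 100% = reference agonist at full effect; tested in CHO reporter cells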
Target sequence (O43603 whole entry, looked up): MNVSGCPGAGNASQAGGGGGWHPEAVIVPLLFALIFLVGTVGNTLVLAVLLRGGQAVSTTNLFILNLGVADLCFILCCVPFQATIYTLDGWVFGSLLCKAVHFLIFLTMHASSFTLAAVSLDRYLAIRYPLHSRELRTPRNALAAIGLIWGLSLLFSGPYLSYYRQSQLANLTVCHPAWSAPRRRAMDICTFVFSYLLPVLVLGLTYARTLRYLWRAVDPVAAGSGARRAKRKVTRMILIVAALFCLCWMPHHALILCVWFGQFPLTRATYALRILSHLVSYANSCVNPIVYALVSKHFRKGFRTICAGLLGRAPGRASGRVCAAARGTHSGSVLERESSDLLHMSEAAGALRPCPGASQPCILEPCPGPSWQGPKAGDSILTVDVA
RGS16-Gao HTS = RGS16-Galphao interaction regulator (human); O15492+P09471; bead-based flow cytometry RGS16-Galphao binding, fluorescence; actives lie on both sides; binding response (% of control), % at 10 µM; 0.38% of 220,000 active; AID 1441;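 active = below 25% or above 175%, edge rows of some plates excepted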;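 also: Galphao activated by GDP with aluminum fluoride before binding; 100% = wells without compound and 0% = beads without RGS; some results beyond the cut were filed as inactive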
Target sequence (O15492 whole entry, looked up): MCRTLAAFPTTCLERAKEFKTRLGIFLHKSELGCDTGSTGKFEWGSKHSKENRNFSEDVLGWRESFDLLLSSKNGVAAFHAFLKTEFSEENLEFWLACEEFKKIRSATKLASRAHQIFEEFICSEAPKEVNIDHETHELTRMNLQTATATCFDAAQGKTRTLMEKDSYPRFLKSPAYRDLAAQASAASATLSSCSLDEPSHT
Target sequence (P09471 whole entry, looked up): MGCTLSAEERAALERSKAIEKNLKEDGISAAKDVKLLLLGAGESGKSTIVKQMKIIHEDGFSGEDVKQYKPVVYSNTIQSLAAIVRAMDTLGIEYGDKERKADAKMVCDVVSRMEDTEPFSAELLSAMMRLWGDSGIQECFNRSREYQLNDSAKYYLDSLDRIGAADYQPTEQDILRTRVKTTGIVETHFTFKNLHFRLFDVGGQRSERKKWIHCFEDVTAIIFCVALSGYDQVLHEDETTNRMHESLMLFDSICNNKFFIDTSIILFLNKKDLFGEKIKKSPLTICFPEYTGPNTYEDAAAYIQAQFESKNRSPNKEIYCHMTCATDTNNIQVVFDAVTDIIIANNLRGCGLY
HSV replic up = increases HSV replication in cells; HSV replication augmentation in cells, fold increase; maximum fold increase; 0.005% of 220,000 active;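 active = peak rise of 1.5-fold or more in the series; inconclusive = self-fluorescent or not available for retest; tested in PC3 cells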;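 also: first round at 10 µM; read as green reporter fluorescence; hits show the peak of a series up to 25 µM; 1 = signal of infected wells without compound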
PKD1 kinase inh = inhibitors of human PKD1 kinase. Q15139. PKD1 kinase fluorescence polarization assay. inhibition, %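 (about 10 µM by stock and volumes)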. 0.056% of 200,000 active. AID 797;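 active = inhibition of 50% or more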;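 also: controls were vehicle for no effect and a reference inhibitor for full effect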
INS promoter inh cell count = also measured in INS promoter inh; calls as there; normalized cell count, %; measured here: cell count, toxicity; reference of the scale not given here;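 cells exposed to compound for 48 h; stained nuclei by imaging scaled within each plate; lower means fewer cells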
HSV replic up primary fold = second read-out of HSV replic up, no call of its own (marks repeat the call); fold increase; compound at 10 µM; measured here: primary screen fold increase 10 uM; tested in PC3 cells;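 GFP signal in the first replicate; 1 = infected wells without compound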
The depositor's hits bear a star; i = inactive; ? = inconclusive; . = not tested or not shown.

structure,INS promoter inh,INS promoter inh cell count,GALR2 ag,RGS16-Gao HTS,HSV replic up,HSV replic up primary fold,PKD1 kinase inh
CCc1ccc(C(C(=O)NCc2ccc(OC)cc2)N(CCOC)C(=O)Cc2cccs2)cc1 (stereo not drawn),13,98,-0.4,101,i,0.69,-2
COc1cc(/C=C/C(=O)OCC(=O)NC2CCS(=O)(=O)C2)ccc1O (stereo not drawn),.,.,-1.2,94,i,1,-18
c1ccc2c(c1)OCC(c1csc3ncnc(N4CCCC4)c13)O2 (stereo not drawn),.,.,0.1,90,i,0.95,0
CCOc1ccc(CC(=O)NNC(=O)/C=C/C(=O)O)cc1,.,.,.,98,i,0.94,.
COc1ccc(NC(=O)N2CCCC2C(=O)Nc2ccc(C)c(Cl)c2)cc1 (stereo not drawn),.,.,0.6,64,i,0.89,-1
Cc1cc(NC(=O)Nc2cccc(C(F)(F)F)c2)n(C)n1,.,.,.,99,i,0.98,-8
O=c1[nH]c(=O)n(C2CCCO2)cc1F (stereo not drawn),-10,124,-0.1,100,i,0.81,-11
COc1cccc(CN2CCC(N(CCc3ccccc3)Cc3ccccc3)CC2)c1OC,7,55,0.0,116,i,0.9,-8
Cc1cc(C)nc(N2CCC(C(=O)Nc3ccc4c(c3)CCC4)CC2)n1,50,74,-0.9,95,i,0.86,-3
CCOC(=O)CN1CCC(c2ccccc2)CC1,.,.,.,104,i,1,3
CC(C)CCc1noc(CN(C)CC2CCN(Cc3ccccc3)CC2)n1,.,.,.,99,i,0.82,8
C#Cc1ccc([C@H]2C=C(C(=O)O)O[C@@H](OCc3ccc(CO)cc3)C2)cc1,.,.,.,105,i,1.1,-4
CCOC(=O)C1CCCN(/C=C2\SC(=S)N(CC)C2=O)C1 (stereo not drawn),.,.,.,96,i,1.1,.
O=C(NCc1ccco1)c1ccc(-c2csnn2)cc1,.,.,.,98,i,0.95,.
O=C(NCCc1ccccc1)c1ccccc1NS(=O)(=O)N1CCCC1,51,56,-2.2,99,i,1,-3
CC(=O)NC1(c2cccc(F)c2)CCN(CC(=O)NC(C)C)CC1,0,107,-1.4,99,i,1.1,-8
Cc1ccc2c(c1)NC(=O)C(CC(=O)N(C)Cc1ccccc1)O2 (stereo not drawn),.,.,-0.6,45,i,0.83,5
c1ccc(OCCN2C3=NCCN3c3ccccc32)cc1,.,.,-2.5,108,i,0.95,-4
Cc1cc(C)c2c(c1)/C(=N/NC(=O)c1ccc(O)cc1)CCC2,.,.,.,101,i,1,-5
CCOC(=O)c1cc(CC)sc1N,-14,73,1.1,93,i,1.1,3
Cc1cc(/C=N/n2cnnc2)c(C)n1-c1ccccc1,-14,94,-2.5,104,i,0.89,-14
c1ccc(CSc2ccc(-c3ccccn3)nn2)cc1,-15,111,.,104,.,.,-3
O=C(Nc1ccccc1)NC1CCN(Cc2c(F)cccc2Cl)CC1,.,.,.,96,i,0.91,.
COc1ccc(C(=O)Cc2nnc(C)s2)cc1,-7,55,-0.8,96,i,1.1,-9
O=C(CN1CCN(Cc2ccc(Cl)cc2)CC1)N/N=C/C=C/c1ccccc1[N+](=O)[O-],.,.,0.5,110,i,0.77,-1
CC(C)Cc1cc(C(=O)N2CCCC(CCC(=O)N(C)CCc3ccccn3)C2)no1 (stereo not drawn),-8,92,.,102,i,0.98,-1
CCn1c(SCC(=O)Nc2c(C)n(C)n(-c3ccccc3)c2=O)nc2c1c(=O)n(C)c(=O)n2C,-19,31,.,109,i,0.98,-4
Cc1ccc(S(=O)(=O)N2CCN(C(=O)c3ccc(OCc4c(C)noc4C)cc3)CC2)cc1,.,.,-0.7,110,i,0.87,-4
CCN(CC)c1ccc(NC(=O)C2CCCN(S(=O)(=O)c3cccnc3)C2)c(C)c1 (stereo not drawn),.,.,-0.6,99,i,1.1,-7
N#C/C(=C/c1cn(CC(=O)O)c2ccccc12)C(=O)NCc1ccccc1,17,137,.,101,i,1.1,2
COc1ccccc1OCCNC(=O)c1cc(SC)ccc1Cl,-31,96,-0.8,98,i,1.1,-9
Clc1ccc2c(c1)CNc1c(ncnc1N1CCOCC1)O2,.,.,-2.1,170,i,1,-12
Cc1ccc(CNC(=O)c2cccnc2Sc2cccc(Cl)c2)cc1,.,.,.,103,i,0.91,.
COC(=O)c1nc(NC(=O)c2ccccc2)n[nH]1,-14,202,-1.9,101,i,1.1,5
CCOc1ccc(OCc2ccc(C(=O)OCc3ccccn3)o2)cc1,22,112,-0.2,100,.,.,-4
O=C(NN1CCOCC1)c1cc(-c2cccs2)nc2ccccc12,-57,62,-2.8,40,i,1,0
CC(C)c1ccc(/C=C/C(=O)Nc2nc3ccc([N+](=O)[O-])cc3s2)cc1,-34,115,-3.2,99,i,1,-9
CC(=O)Nc1c(C)cc(S(C)(=O)=O)cc1C,13,82,-1.2,57,i,1,8
O=C1C2CC=CCC2C(=O)N1Cc1ccccc1Cl (stereo not drawn),-31,143,-0.6,106,i,0.99,-7
CC(=O)Nc1nc2n(n1)C(c1ccc(Cl)cc1)C=C(C)N2 (stereo not drawn),.,.,0.0,104,i,1,-10

Part of the list above, with values under each structure.
Each structure is followed by: INS promoter inh, INS promoter inh cell count, GALR2 ag, RGS16-Gao HTS, HSV replic up, HSV replic up primary fold, PKD1 kinase inh
COc1ccccc1OCCNC(=O)c1cc(SC)ccc1Cl
    -31, 96, -0.8, 98, i, 1.1, -9
Clc1ccc2c(c1)CNc1c(ncnc1N1CCOCC1)O2
    ., ., -2.1, 170, i, 1, -12

Next records.
structure,INS promoter inh,INS promoter inh cell count,GALR2 ag,RGS16-Gao HTS,HSV replic up,HSV replic up primary fold,PKD1 kinase inh
Cc1ccc(CCNC(=O)c2cc(C)nn2-c2ccccc2)cc1,.,.,.,101,i,0.94,.
CC(=O)Nc1ccc(NC(=O)C/C(C)=N/NC(N)=S)cc1,-67,106,.,105,i,1,-4
CCCc1cc(=O)[nH]c(NCc2ccc(Cl)cc2)n1,20,130,-1.3,97,i,0.93,-7
COc1ccc2c(c1)C(C)=CC(C)(C)N2C(=O)CNCc1ccc2c(c1)OCO2,.,.,-2.4,104,i,0.97,-8
O=C(Cn1nc(C(=O)O)c2ccccc2c1=O)NC12CC3CC(CC(C3)C1)C2,.,.,.,100,i,0.85,2
N#Cc1nc(-c2ccc(OCc3ccccc3)cc2)oc1NCc1ccco1,50,35,-1.8,101,i,0.82,4
CCOC(=O)C1=C(C)NC2=C(C(=O)CC(C)(C)C2)C1c1ccc(O)c(OCC)c1 (stereo not drawn),.,.,.,98,i,1.1,.
CN(C)CCOc1ccc2ccccc2c1,-7,132,0.3,101,i,0.96,-5
COc1nc2c(c(-c3cc(Br)cs3)c1C#N)Cc1ccccc1-2,.,.,.,98,i,1.1,.
CCOC(=O)/C(C#N)=C/c1ccc(OCC(=O)Nc2cc(C)ccc2C)c(OC)c1,-29,118,-3.1,103,i,0.99,3
COC(=O)Cn1c(=NC(=O)c2cc(-c3cccs3)nc3ccccc23)sc2cc(S(N)(=O)=O)ccc21,24,140,1.5,90,i,0.83,6
CCOc1ccccc1OCC(O)CNC (stereo not drawn),62,124,-2.2,78,i,0.78,-8
COc1ccccc1CNC(=O)Nc1cccs1,2,116,-1.7,112,i,1.1,0
Cc1ccc2c(c1)Oc1ccc([N+](=O)[O-])cc1C(=O)N2,-9,23,.,103,i,1.1,-4
COCc1[nH]nc2c1C(c1ccccc1Cl)C(C#N)=C(N)O2 (stereo not drawn),68,77,5.0,200,i,0.83,-6
O=C(Nc1ccccc1Cl)N1C2CCC1CC(O)(c1cccnc1)C2 (stereo not drawn),.,.,.,99,i,0.87,6
Cc1cc2ccccc2c(=O)n1CC(=O)NCC(=O)N(C)Cc1ccccc1,.,.,-0.3,100,i,0.88,-13
CCCCOC(=O)CSC1=C(C#N)C(c2ccc3c(c2)OCO3)CC(=O)N1 (stereo not drawn),.,.,-2.4,109,i,0.97,6
CCOc1ccc(S(=O)(=O)N(C)c2ccc(OCC(=O)OCc3c(C)noc3C)cc2)cc1,.,.,-0.7,102,i,0.94,-9
COc1ccc2nc(SCC(=O)NC(C)C)[nH]c2c1,56,57,0.6,99,i,1,-5
COc1ccc(N/C(=N/c2nc(C)cc(C)n2)NC(=O)c2ccccc2)cc1,.,.,.,98,i,0.85,.
CCc1n(CC(O)COCC2CC=CCC2)c2ccccc2[n+]1C (stereo not drawn),.,.,.,101,i,0.88,-5
CCOc1ccc(S(=O)(=O)N(CC(=O)N/N=C/c2cccs2)c2ccc(C)cc2)cc1,0,121,-0.6,93,i,0.86,-2
CCOC(=O)Cn1nnnc1C,.,.,.,102,i,0.98,6
CC(=O)C1=C(C)NC(SCC(=O)Nc2nccs2)=C(C#N)C1c1ccccc1Cl (stereo not drawn),.,.,0.6,105,i,0.79,-4
N=C(N)CCCOc1ccccc1-c1ccccc1,-14,92,-1.6,73,i,0.89,-2
CCCCN(C)CCCNC(=O)c1cn(CC)c2ccc(S(=O)(=O)N3CCc4ccccc4C3)cc2c1=O,-100,78,.,101,.,.,-7
CCOCCCNC1=C(Cl)C(=O)c2ccccc2C1=O,.,.,.,105,i,1,.
CCCc1c(O)nc(SCC(=O)NCc2ccco2)[nH]c1=O,0,84,.,100,i,1,3
O=C(N/N=C/c1ccccn1)c1cccc(S(=O)(=O)Nc2ccccc2Cl)c1,.,.,.,100,i,0.89,5
CC(C)c1ccc(/C=C/C(=O)N2CCc3ccccc3C2)cc1,.,.,-1.8,108,i,0.96,-12
CCCCOC(=O)c1cc(-c2ccc(/C=N/n3cnnc3)o2)ccc1Cl,20,152,-0.5,.,i,0.94,-3
COc1cc(NS(=O)(=O)c2ccc(F)cc2)c(OC)cc1NC(=O)C1CC1,6,88,-1.9,104,i,1.2,-17
COCCOC(=O)C1=C(C)NC(=O)NC1c1c(Cl)nc2ccccn2c1=O (stereo not drawn),.,.,-1.5,109,i,2,-7
O=C(CSc1ncn[nH]1)N1CCCCC1,.,.,.,100,i,1,.
Cc1cccn2c(=O)c(/C=C3\SC(=S)N(CC(C)C)C3=O)c(NCCCOC(C)C)nc12,9,104,-2.8,108,?,.,-8
Cc1nn(-c2ccccc2)c(C)c1/C=N/NC(=O)c1cc(-c2cccc3ccccc23)n[nH]1,.,.,-1.2,65,i,0.86,-7
COc1ccc(F)cc1CN1CCN(c2ncnc3scc(-c4ccccc4)c23)CC1,.,.,.,84,i,0.95,.
CCC(=O)Nc1cc2nn(-c3ccc(C)cc3)nc2cc1C,.,.,.,99,i,1,-6
COc1ccc(S(=O)(=O)N(CCc2ccccc2)CC(=O)N2CCOCC2)cc1,.,.,-1.6,102,i,1,9
CC(C)CNC(=O)/C=C/c1cccs1,.,.,-1.9,99,i,1,-9
CC(NC(=O)Cc1ccccc1)c1nc2ccccc2[nH]1 (stereo not drawn),.,.,-0.7,102,i,0.76,0
C=CCNC(=O)NC(=O)COC(=O)/C(C#N)=C/c1cc(C)n(CC(C)C)c1C,39,92,-0.6,91,i,1.2,4
COCCCn1c(=S)[nH]c2c(sc3ccccc32)c1=O,36,64,.,96,i,0.95,-16
CN1CCN(C(c2cccs2)c2nnnn2Cc2ccc(F)cc2)CC1 (stereo not drawn),.,.,.,102,i,1,-3
Oc1[nH]c2ccccc2c1N=Nc1ccc(C(F)(F)F)cn1,.,.,-2.8,103,.,.,2
Cc1[nH]c2ccccc2c1C(=O)COC(=O)c1c(-c2ccccc2)noc1C,15,159,-1.1,101,i,0.87,-6
Cc1c(C(=O)c2ccc(Cl)cc2[N+](=O)[O-])c2ccccn2c1CCC#N,-64,102,-0.8,107,i,0.94,5
O=P(O)(CP(=O)(c1ccccc1)c1ccccc1)c1ccccc1,19,82,-1.2,100,i,1.1,7
Cc1ccc(Nc2nc(-c3ccc(O)cc3O)cs2)nc1,.,.,.,97,i,0.86,9
O=C(CSc1ncccc1C(=O)O)NC1CCCCCCC1,.,.,.,80,i,0.96,.
Cc1cc(C(=O)COC(=O)c2ccc(CO)cc2)c(C)n1CC1COc2ccccc2O1 (stereo not drawn),-19,151,0.4,99,i,1,-11
